TRPML1 inh = qHTS for Inhibitors of the Human Mucolipin Transient Receptor Potential 1 (TRPML1). 0.02% of 390,000 active. activity change, negative = inhibition, % (concentration not given with the values). TRPML1-inducible cells, Ca2+ dye fluorescence, FDSS; active compounds read low; inhibition of EC80 agonist-evoked calcium signal. Mucolipin-1 (Homo sapiens), Q9GZU1. AID 624415, 2012; in the data active means activity change below about -50%; inconclusive means about -30% to -50%; inactive means above about -30%;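 note: stimulus is agonist 54-4 at its EC80 concentration; % is set by controls: 0 for no effect and ±100 for the full control effect; the text of the record puts the active cut at -80%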
Target sequence (Q9GZU1 whole entry, looked up): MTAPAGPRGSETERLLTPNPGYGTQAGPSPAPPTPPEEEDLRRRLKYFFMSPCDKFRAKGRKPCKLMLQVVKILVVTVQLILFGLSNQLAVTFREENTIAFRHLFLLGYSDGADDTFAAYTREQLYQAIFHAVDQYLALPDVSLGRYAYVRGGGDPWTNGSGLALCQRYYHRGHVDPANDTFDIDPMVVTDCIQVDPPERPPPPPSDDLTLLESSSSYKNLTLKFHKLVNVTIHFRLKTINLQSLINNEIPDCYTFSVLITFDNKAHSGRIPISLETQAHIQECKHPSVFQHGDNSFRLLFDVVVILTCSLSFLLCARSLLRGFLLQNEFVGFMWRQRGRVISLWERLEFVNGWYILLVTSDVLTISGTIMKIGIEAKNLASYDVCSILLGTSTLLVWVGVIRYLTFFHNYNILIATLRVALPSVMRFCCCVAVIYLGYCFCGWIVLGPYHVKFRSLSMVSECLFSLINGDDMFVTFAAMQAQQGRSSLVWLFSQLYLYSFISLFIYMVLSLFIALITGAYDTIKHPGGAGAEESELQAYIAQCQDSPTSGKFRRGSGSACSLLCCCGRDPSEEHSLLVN
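TRPML1-DL cells, Tet-induced overnight (~16 h, 37 °C) at 1,500 cells/well, were loaded with Ca8 no-wash dye plus quencher for 45-90 min at room temperature. Compounds were pinned during FDSS kinetic reading; agonist 54-4 at EC80 (4 uM final) then added.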
ClpP mod = qHTS Assay for Activators of ClpP; Potency, µM (series often up to 57.5 µM), for inactives: at the highest dose activity change, negative = active; 1.9% of 340,000 active; AID 651965, 2013; ATP-dependent Clp protease proteolytic subunit (Bacillus subtilis (strain 168)), P80244; purified B. subtilis ClpP, FRET peptide cleavage, 20 min; active = well fitted falling curve with a large enough effect; inconclusive = small, poorly fitted or top-dose-only effect; inactive = no such curve, though single readings can be large or run the other way; note: potency is the fitted concentration of half-maximal effect; the source files actives as falling curves though it sought activators and does not explain the sign; nearly all actives have a fitted effect of over 65% in size; many hits overshoot -100%
Target sequence (P80244 whole entry, looked up): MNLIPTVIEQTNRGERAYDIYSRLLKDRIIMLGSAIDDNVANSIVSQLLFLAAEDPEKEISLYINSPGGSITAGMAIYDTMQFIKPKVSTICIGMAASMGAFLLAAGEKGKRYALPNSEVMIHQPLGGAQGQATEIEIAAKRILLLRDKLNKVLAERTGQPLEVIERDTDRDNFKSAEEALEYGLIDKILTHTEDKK
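FRET quenching reversal measured ClpP activation: 10 microg/mL B. subtilis ClpP at pH 8 with the FRET-FV decapeptide, read at 430 nm after 320 nm excitation. The 20-min minus 0-min signal was scaled between DMSO/no-enzyme wells and ADEP (5.8 microM final).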
gsp ag = qHTS for Agonist of gsp, the Etiologic Mutation Responsible for Fibrous Dysplasia/McCune-Albright Syndrome: qHTS; gsp mutant cells, cAMP HTRF, 30 min; control for the full effect not named in the record; Potency, µM (top dose mostly 76.9 µM), inactives show at the highest dose activation (cAMP increase), hits mostly activators; 0.13% of 340,000 active; AID 624287, 2012; active = well fitted activation curve with a large enough effect; inconclusive = small, poorly fitted or top-dose-only effect, or another doubt; inactive = no such curve, though single readings can be large or run the other way; cell line not stated here;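 note: phosphodiesterase inhibitor Ro 20-1724 added with compounds to block cAMP breakdown; potency is the fitted concentration of half-maximal effect; nearly all actives have a fitted effect of over 60% in size; about a fifth of the inactives were tested at one dose only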
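Cells stably selected in G418 were plated at 2000/well, grown 16-24 hr, then given compounds in DMSO with the PDE inhibitor […] (300 uM solution added) for 30 min at 37C; cAMP was read by HTRF.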
Sfp inh = qHTS Assay for Inhibitors of Bacillus subtilis Sfp phosphopantetheinyl transferase (PPTase); 3.5% of 310,000 active; Potency, µM, without a hit: max response, negative = inhibition, usual class: inhibitors; 4'-phosphopantetheinyl transferase ffp (Bacillus subtilis), Q9F4F7; Biochemical Sfp PPTase activity, qHTS; active = well fitted inhibition curve with a large enough effect; inconclusive = small, poorly fitted or top-dose-only effect, or another doubt; inactive = no such curve, though single readings can be large or run the other way;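 note: the enzyme is Sfp with the accession as filed and its product quenches rhodamine fluorescence; potency is the fitted concentration of half-maximal effect; 0% = enzyme reaction without inhibitor and -100% = no enzyme wells; top concentration of the series not given in the record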
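Buffer: 50 mM Hepes-Na pH 7.6, 10 mM MgCl2, 0.01% Nonidet P-40, 0.01% BSA. Enzyme 15 nM, pre-exposed to compound 15 min; substrates then added and fluorescence change tracked over 30 min.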
Menin-MLL FL inh = qHTS Assay for Inhibitors Targeting the Menin-MLL Interaction in MLL Related Leukemias: Competition With Fluorescein Labeled MLL-derived Peptide; FP activity change, % at 61.4 µM; 290,000 tested, under 10 active; AID 1766, 2009; Fluorescence polarization, fluorescein-MLL peptide displacement from menin; inconclusive = falling polarisation curve, or a change in total fluorescence; inactive = total fluorescence flat and polarisation flat or rising; no compound was filed as active; the % refers to the polarisation; negative = inhibition;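 note: % of control where 0% means no effect; inhibitors lower the polarisation; unlabelled MLL peptide was the positive control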
TRPV1 PAM = HTS Assay for Compounds that Act as Potentiators of the Vanilloid Receptor 1; potentiation, % at 8.33 µM; TRPV1-expressing cells, Fluo-8 calcium influx, capsaicin EC20 potentiation; host cell line not named in the record; control for the full effect not named in the record; Transient receptor potential cation channel subfamily V member 1 (Homo sapiens), Q8NER1; 0.02% of 320,000 active; active means potentiation above 80%; inconclusive means 30% to 80%; inactive means below 30%; note: 0% is about no effect
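Fluo-8 calcium influx in TRPV1-expressing cells, kinetic read (ex 480/em 520 nm). Compound added and read 3 min for agonist activity, followed by capsaicin at EC20 final and 2 min further read for enhancement.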
gsp antag = qHTS for Antagonists of gsp, the Etiologic Mutation Responsible for Fibrous Dysplasia/McCune-Albright Syndrome: qHTS. gsp-mutant cells, cAMP HTRF, 30 min; control for the full effect not named in the record. Potency, µM (titrated, usually from 76.9 µM), without a hit: at the top dose activity change, negative = inhibition, hits mostly inhibitors. 0.4% of 340,000 active; active = falling curve of any shape with a large fitted effect; inconclusive = falling curve, mostly with a smaller effect; inactive = flat or rising curve; cell line not stated here;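 note: intracellular cAMP measured with PDE inhibitor Ro 20-1724 present during compound exposure; potency is the fitted concentration of half-maximal effect; % is set by controls: 0 for no effect and ±100 for the full control effect; nearly all actives have a fitted effect of over 65% in size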
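Measurement of cellular cAMP by homogeneous time-resolved fluorescence following a 30 min compound exposure at 37C. The PDE inhibitor […] was present throughout; the assay buffer was DPBS with 0.05% BSA and 0.005% Tween 20.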
* marks the source's active call; other numbers are inactive results; ? = inconclusive; · = not tested or not shown; [ ] = another dose, or the depositor's remark. Compounds as they come; overall some 4.9% were active at least once.

SMILES | TRPML1 inh | ClpP mod | gsp ag | Sfp inh | Menin-MLL FL inh | TRPV1 PAM | gsp antag
O=C(CCNS(=O)(=O)c1ccc2c(c1)CCC(=O)N2)NCc1ccc2c(c1)OCO2 | -16 | 0.4% | 19% | 12% | -5.0 | -42 | 13%
Nc1nc(Cl)nc2ncn(Cc3ccccc3)c12 | -13 | -0.1% | 1%[15.4 µM] | 10% | -16 | -7 | -20%
CC(=O)c1cccc(NC(=O)c2ccc3c(c2)CCCC3)c1 | -12 | -0.9% | -28% | 4% | 0.8 | -1 | -29%
CCC(=O)Nc1ccc(C(=O)NNC(=O)c2cc([N+](=O)[O-])cc([N+](=O)[O-])c2)cc1 | -2 | · | 3%[15.4 µM] | -3% | 0.2 | 6 | 0%
COc1cc2c(cc1NC(=O)c1cccc([N+](=O)[O-])c1C)oc1ccccc12 | -18 | -27% | 12% | 6% | 5.6 | 17 | -18%
COc1cc(C2c3cc4c(cc3OC(N3CCCC3)C2C)OCO4)cc(OC)c1O (stereo not drawn) | 15 | -1.5% | 3% | · | · | · | 15%
Cc1cccc(Nc2ncnc3nc[nH]c23)c1 | 13 | 0.1% | -14% | 11% | 0.3 | -30 | -1%
CCCN1Cc2cccc(C(=O)N3CCN(c4ccccc4)CC3)c2C1=O | -2 | -41% | 12% | 7% | -2.1 | 8 | 9%
COc1ccc(-n2nnc3c(=O)n(CC(=O)N4CCCc5ccccc54)cnc32)cc1 | 11 | 25% | -50%[inhibitor] | 14% | 1.7 | 11 | -12%
O=c1[nH]c(CSc2nnnn2-c2ccc(Cl)cc2)nc2ccccc12 | 5 | · | ? | -2% | 7.2 | 21 | -4%
Cc1nc(Nc2ccc(Cl)c(Cl)c2)sc1C(=O)Nc1ccccc1 | 4 | ? | 2% | 5% | 4.4 | -8 | 50µM*
CCn1c(SCC(=O)NC2(C#N)CCCCC2)nc2ccccc2c1=O | -4 | -0.7% | 16% | · | · | -22 | -10%
COc1cccc(NC(=O)COC(=O)c2c3c(nc4ccccc24)CCC(C)C3)c1 (stereo not drawn) | 1 | -3.7% | -4% | 19% | 0.5 | -9 | ?
Cc1cccc(N(Cc2ccccc2)C(=O)Cc2ccc(S(=O)(=O)N3CCOCC3)s2)c1 | -7 | -1.7% | 10%[15.4 µM] | · | · | 1 | -17%
N#CC1(NC(=O)COC(=O)c2ccccc2SCC(=O)N2CCCC2)CCCCC1 | -9 | -2.7% | ? | 8% | · | -3 | -15%
Cc1cc2c(cc1S(=O)(=O)CCC(=O)NC1CCCCC1C)OCC(=O)N2 (stereo not drawn) | -11 | -2.2% | ? | 5% | -1.8 | -5 | 8%
CC(=O)/C(=N\Nc1ccccc1)Sc1nnc(-c2ccccc2)n1-c1ccccc1 | -4 | 1.4% | 8% | -27% | 2.5 | -24 | 9%
CCOC(=O)c1cc(-c2ccccc2)sc1NC(=O)CN1C(=O)NC(CC)(c2ccc(F)cc2)C1=O (stereo not drawn) | 0 | -18% | ? | -6% | 4.9 | -1 | -2%
O=C(O)c1ccccc1-c1ccccc1C(=O)Nc1ccc2oc(=O)c3ccccc3c2c1 | 10 | -16% | -12% | · | · | · | ·
COc1ccc(-c2nc(SC(CC(=O)NCCO)c3cccs3)n[nH]2)cc1 (stereo not drawn) | 8 | -27% | 8%[15.4 µM] | 8% | 0.7 | 0 | 8%
CN(Cc1cc(Cl)cc(Cl)c1)CC(C(=O)c1ccccc1)c1ccccc1 (stereo not drawn) | 13 | -1.1% | -41% | · | · | · | -8%
CC(C)C(C(=O)NCc1ccco1)N(Cc1ccco1)C(=O)CNS(=O)(=O)c1ccc(F)cc1 (stereo not drawn) | 8 | · | ? | 5% | 0.0 | 15 | -1%
O=C(O)c1ccc2c(c1)S(=O)(=O)c1cc(Cl)ccc1C2=O | 0 | -3.5% | · | · | · | 6 | -16%
COCCn1c(NCc2ccco2)nc2c1c(=O)[nH]c(=O)n2C | 12 | · | 3% | 16% | 2.0 | -1 | 8%
CC(=O)N(c1c(C)n(C)n(-c2ccccc2)c1=O)C1(C(=O)NC2CCCCC2)CCCCC1 | -11 | -2.0% | -3% | 11% | -1.1 | 7 | -9%

Results in gsp ag, for some of the entries so far:
mol | gsp ag
COc1ccc(-c2nc(SC(CC(=O)NCCO)c3cccs3)n[nH]2)cc1 (stereo not drawn) | 8%[15.4 µM]
CN(Cc1cc(Cl)cc(Cl)c1)CC(C(=O)c1ccccc1)c1ccccc1 (stereo not drawn) | -41%
CC(C)C(C(=O)NCc1ccco1)N(Cc1ccco1)C(=O)CNS(=O)(=O)c1ccc(F)cc1 (stereo not drawn) | ?

Further records follow.
SMILES | TRPML1 inh | ClpP mod | gsp ag | Sfp inh | Menin-MLL FL inh | TRPV1 PAM | gsp antag
Cc1ccccc1S(=O)(=O)Cc1ccc(C(=O)NCCCN2CCN(C)CC2)o1 | -6 | -4.5% | -18% | ? | 0.0 | -4 | 17%
COC(=O)C(C)N(C(=O)c1ccc(C(=O)c2ccccc2)cc1)c1c(C)cccc1C (stereo not drawn) | 48 | -2.2% | 12% | -6% | 5.9 | 6 | -21%
CCN(CC(=O)NCCc1ccc(S(N)(=O)=O)cc1)Cc1nc2cc(OC)c(OC)cc2c(=O)[nH]1 | 14 | -21% | -5% | -17% | -2.1 | 5 | 4%
COc1ccc(Cl)cc1NC(=O)C1CCN(S(C)(=O)=O)CC1 | 4 | 0.8% | 11%[15.4 µM] | 14% | 6.2 | 2 | -15%
O=C(OCc1c(Cl)cccc1Cl)c1ccncc1 | -2 | 0.9% | -5% | 11% | -2.7 | -22 | 15%
C/C(CC(=O)NCc1ccco1)=N\NC(=O)Cc1cccc2ccccc12 | 14 | -3.6% | 3% | -6% | 3.9 | 6 | 11%
CCOc1cc(S(=O)(=O)NCC2CCCO2)ccc1F (stereo not drawn) | -4 | -0.4% | ? | 4% | 1.7 | 0 | -7%
COc1ccc(C(=O)NCC(=O)N/N=C/c2c(C)[nH]c3ccccc23)cc1 | -4 | 7.7% | 24% | 8% | · | 20 | 0%
CCCCNC(=O)O[C@H]1C[C@@H]2CCN3C(=O)CCC[C@H]([C@H]1CC)[C@H]23 | -20 | -0.4% | · | 10% | 0.8 | -16 | -1%
CCN(CC)C(=O)C1=C(C)N(CCCN2CCCC2=O)C(=O)C(CC(=O)NCc2cccs2)C1 (stereo not drawn) | -1 | -1.1% | -31%[inhibitor] | · | · | · | ·
Cc1sc2ncnc(Sc3ccccc3C(=O)Nc3ccccc3Cl)c2c1C | 23 | -4.9% | ? | ? | 1.2 | -6 | -9%
Cc1onc(-c2c(Cl)cccc2Cl)c1C(=O)Nc1ccc(Cl)cn1 | -3 | · | -55%[inhibitor][15.4 µM] | 27% | 3.0 | · | ?
COCCn1c(SCC(=O)Nc2cccc(OC)c2)nnc1-c1ccc(Cl)cc1 | 12 | -0.6% | 9% | 16% | 3.6 | -1 | -1%
Cc1ccc(S(=O)(=O)c2nc(-c3cccs3)oc2NCc2cccnc2)cc1 | 13 | ? | 1%[15.4 µM] | -1% | 1.0 | 8 | -13%
O=C(Cn1nnc(-c2cccc(C(F)(F)F)c2)n1)NNS(=O)(=O)c1cccc(C(F)(F)F)c1 | 50 | 1.0% | 5% | 1% | 3.2 | 1 | -8%
Cc1ccc(NC(=O)c2ccc([N+](=O)[O-])o2)c(C)c1 | 13 | -1.2% | 6% | 21% | 1.7 | -5 | 0%
Cc1ccccc1NC(=O)c1ccc(S(=O)(=O)N(C)C)cc1 | 9 | 0.2% | 25% | 13% | 0.1 | 25 | 9%
Cc1c(C(=O)N2CCN(c3ccc(F)cc3)CC2)sc2nc(-c3ccccc3)cn12 | 21 | -2.2% | 17% | -2% | 1.6 | -7 | 11%
O=C(Cc1cccc(NC(=O)C2CCCN(C(=O)C3CCC3)C2)c1)Nc1cccc(C(=O)N2CCCCC2)c1 (stereo not drawn) | 5 | 0.6% | · | · | · | · | -4%
Cc1cc(C)cc(NC(=O)c2ccccc2NC(=O)CCC(=O)O)c1 | -13 | -1.9% | -8% | ? | 6.0 | 3 | -4%
O=C(c1ccc(F)cc1)C1CCN(C(=S)Nc2ccccc2)CC1 | -11 | -0.6% | -30% | 13% | 2.2 | 4 | -8%
CCOc1cc(CNCCSc2nnnn2C)cc(Br)c1OCc1ccc(F)cc1 | 13 | -21% | -9%[15.4 µM] | ? | -0.2 | -2 | -27%
O=C(NC(=O)c1cc([N+](=O)[O-])ccc1Cl)C1=C(N2CCCC2)COC1=O | 12 | -0.5% | 2% | · | · | · | -5%
Cn1c(=O)[nH]c(=O)c2c1nc(N/N=C/c1ccncc1)n2Cc1ccc(F)cc1 | 6 | 0.9% | -1%[15.4 µM] | ? | -0.8 | -23 | 13%
O=C(NCc1ccc(F)cc1)C1CCN(S(=O)(=O)c2ccc(Cl)cc2)CC1 | ? | · | ? | -20% | -5.0 | 3 | -3%
CCOC(=O)CCSc1nc(C)c2cc(OC)ccc2n1 | 5 | 25µM* | 21% | -29% | 1.7 | -23 | -4%
Cc1cc(C(F)(F)F)nn1CC(=O)NCc1ccco1 | -14 | 2.0% | 21% | 1% | -3.0 | 3 | -14%
c1ccc2c(c1)nc1n2CCN1CCNC1CCCCC1 | -21 | -1.2% | -9% | -14% | -3.6 | 25 | -1%
Cn1nnnc1SC1CC(=O)N(c2ccccc2)C1=O (stereo not drawn) | -3 | · | 7%[15.4 µM] | -21% | 3.1 | 7 | 6%

Screening data deposited in PubChem BioAssay by National Center for Advancing Translational Sciences (NCATS).
